D2 PAM: human D2 receptor positive allosteric modulation. P14416. DiscoveRx D2 beta-arrestin cells, luminescence, 90 min; 100% = 57 uM dopamine signal. potentiation, % (no concentration beside the values). 360,000 tested, 0.23% active; active = potentiation of 50% or more; inconclusive = 30% to 50%; inactive = 30% or less;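 note: compound concentration not given in the record; tested on top of an EC20 dose of dopamine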
Target sequence (P14416 whole entry, looked up): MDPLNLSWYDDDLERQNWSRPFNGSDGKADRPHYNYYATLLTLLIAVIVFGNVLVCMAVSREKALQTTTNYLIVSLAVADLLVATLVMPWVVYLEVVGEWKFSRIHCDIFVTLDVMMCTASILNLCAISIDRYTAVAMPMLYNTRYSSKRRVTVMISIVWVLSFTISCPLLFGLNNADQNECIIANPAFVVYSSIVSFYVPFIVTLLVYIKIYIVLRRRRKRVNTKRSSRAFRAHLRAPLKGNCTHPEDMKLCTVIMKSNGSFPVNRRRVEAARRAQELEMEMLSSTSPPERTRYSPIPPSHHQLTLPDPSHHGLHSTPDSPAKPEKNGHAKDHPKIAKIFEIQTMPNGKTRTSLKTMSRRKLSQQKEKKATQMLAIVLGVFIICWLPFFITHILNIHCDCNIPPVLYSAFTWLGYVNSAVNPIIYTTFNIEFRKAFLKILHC
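PathHunter beta-arrestin assay in DiscoveRx D2 cells. Compounds were added with an EC20 of dopamine (50 nM final) for 90 min at 37 deg C. Luminescence was read 1 h after detection reagent, with 57 uM dopamine as the EC100 control.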
CtBP-E1A blk: CtBP/E1A binding inhibition; AlphaScreen GST-E1A/His-CtBP binding, 1536-well; active compounds read low; control for the full effect not named in the record; activity change, % (concentration not given with the values); 340,000 tested, 0.49% active; in the data active means activity change below about -65%; inconclusive means about -30% to -65%; inactive means above about -30%; note: % is set by controls: 0 for no effect and ±100 for the full control effect
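AlphaScreen with 125 nM GST-E1A and 125 nM His-CtBP (5X stocks) in Tris pH 8.0, 300 mM NaCl, BSA, Tween 20, TCEP. Compounds preincubated 2 h at 37 deg C, then glutathione donor/nickel acceptor beads added for 1 h at 37 deg C in dark.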
D2 ag: human D2 receptor agonism in beta-arrestin assay; P14416; activation, % (concentration not given with the values); 360,000 tested, 0.084% active; AID 624465; DiscoveRx PathHunter D2 beta-arrestin, luminescence, 90 min; 100% = 57 uM dopamine signal; in the data active = activation above about 40%; inconclusive = about 15% to 40%; inactive = below about 15%; note: compound concentration not given in the record; the text of the record calls up to 30% inactive
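DiscoveRx PathHunter D2 beta-arrestin cells (2,100/well) attached overnight, then compound-stimulated 90 min at 37 C in HBSS/10 mM HEPES/0.1% Tween-20 buffer; beta-galactosidase complementation read by luminescence after 1 h at ambient temperature. Dopamine 57 uM final (EC100) as control.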
Six1-Eya2 inh: inhibitors of human Six1/Eya2 interaction; Q15475+O00167; AlphaScreen GST-Six1/His-Eya2 binding, biochemical; active compounds read low; control for the full effect not named in the record; activity change, % (no concentration beside the values); 360,000 tested, 0.56% active; in the data active = activity change below about -65%; inconclusive = about -30% to -65%; inactive = above about -30%; note: % is set by controls: 0 for no effect and ±100 for the full control effect
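AlphaScreen with GST-Six1 and His-Eya2 (5X mix: 250 nM and 500 nM), glutathione donor and nickel acceptor beads; buffer 50 mM Tris pH 8.0, 300 mM NaCl, 1 mM TCEP; 1 h at 37 C in the dark.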
gsp antagonist: antagonists of gsp mutant (McCune-Albright syndrome) | gsp-mutant cells, cAMP HTRF, 30 min; control for the full effect not named in the record | Potency, µM (highest dose often 76.9 µM), for inactives: at the top dose activity change, negative = inhibition, most hits filed as inhibitors | 340,000 tested, 0.4% active; active = falling curve of any shape with a large fitted effect; inconclusive = falling curve, mostly with a smaller effect; inactive = flat or rising curve; cell line not stated here;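 note: intracellular cAMP measured with PDE inhibitor Ro 20-1724 present during compound exposure; potency is the fitted concentration of half-maximal effect; % is set by controls: 0 for no effect and ±100 for the full control effect; nearly all actives have a fitted effect of over 65% in size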
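G418-selected cells were plated in DMEM/10% FBS for 16-24 h at 37C, then treated with compounds plus the PDE inhibitor […] (300 uM solution added) for 30 min at 37C. Intracellular cAMP was measured by HTRF after 30 min lysis at room temperature.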
gsp agonist: agonists of gsp mutant (McCune-Albright syndrome); gsp mutant cells, cAMP HTRF, 30 min; control for the full effect not named in the record; Potency, µM (highest dose often 76.9 µM), without a hit: top-dose activation (cAMP increase), hits mostly activators; 340,000 tested, 0.13% active; AID 624287; active = well fitted activation curve with a large enough effect; inconclusive = small, poorly fitted or top-dose-only effect, or another doubt; inactive = no such curve, though single readings can be large or run the other way; cell line not stated here;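 note: phosphodiesterase inhibitor Ro 20-1724 added with compounds to block cAMP breakdown; potency is the fitted concentration of half-maximal effect; nearly all actives have a fitted effect of over 60% in size; about a fifth of the inactives were tested at one dose only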
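Cells in DMEM/10% FBS with G418 were pretreated with compounds in DMSO plus […] (300 uM stock) for 30 min at 37C. cAMP was measured by HTRF (cAMP-d2 plus anti-cAMP antibody-K) after 30 min at room temperature.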
Active calls of the source: *; u = inconclusive; x = not tested or not shown; & = joins results of further samples; [ ] = dose if it differs, or a comment.

SMILES	D2 PAM	CtBP-E1A blk	D2 ag	Six1-Eya2 inh	gsp antagonist	gsp agonist
C#CCOc1c(Cl)cc(C2C3=C(CCCC3=O)N(CC(=O)O)C3=C2C(=O)CCC3)cc1OC	4	1	1.5	-1	17%	u
Cc1ccc([N+](=O)[O-])cc1S(=O)(=O)Nc1cccc(S(=O)(=O)Nc2ccccc2C(=O)O)c1	-4	-4	1.9	77	-2%	-45%[inhibitor]
CC(C)OCCCN(C)C1CCN(S(=O)(=O)c2ccc(-c3ccc(=O)[nH]n3)s2)CC1	-11	2	-5.7	0	2%	u
COc1ccc(-c2nc(CN(C)C(C)c3ccon3)c(C)o2)c(C)c1C (stereo not drawn)	-10	15	-0.5	-1	-31%	9%[15.4 µM]
O=C(COC(=O)c1ccco1)Nc1nc2ccccc2s1	-3	3	-2.3	1	-7%	2%
O=C(Nc1cc(C(F)(F)F)ccc1N1CCOCC1)c1ccccc1F	-12	1	-3.0	4	-10%	u
C=CCOc1ccccc1/C=N/O	1	3	1.1	5	5%	15%
COCCNC(=S)N/N=C(\C)c1ccccc1O	-21	u	-7.9	-69*	8%	-34%[inhibitor]
COc1ccc([N+](=O)[O-])cc1NC(=O)CSc1nncn1-c1ccccc1	-20	-8	-0.3	4	-13%	-1%[15.4 µM]
Cc1nc2ccc(NC(=O)N(C)c3ccccc3)cc2s1	2	8	2.6	-1	7%	-32%[inhibitor]
CCCCOC(=O)CSc1n[nH]c(=O)[nH]c1=O	-1	13	0.8	3	7%	-32%[inhibitor]
Cc1ccc(NC(=S)NCc2ccc3c(c2)OCO3)c(C)c1	-10	-5	-2.7	-8	2%	-10%
O=C(CCC(NC(=O)OCc1ccccc1)C(=O)OCC(=O)N1CCCCC1)OCC(=O)N1CCCCC1 (stereo not drawn)	-6	0	-4.2	21	1%	2%
COc1ccc(C(=O)C2CCCN(C(=O)C3CCOCC3)C2)cc1OC (stereo not drawn)	-8	x	-5.4	-10	-5%	-18%
Cc1cccc(C)c1Nc1c(-c2ccccn2)nc2ccccn12	-31	x	-8.0	-84*	-12%	31%
O=C1Nc2ccc(Br)cc2/C1=C/C(=O)c1ccccc1	-39	-6	-3.3	1	-4%	10%
CCOC(=O)N1CCN(C(=O)c2cc(-c3ccc(OCC)cc3)nc3ccccc23)CC1	-14	-3	-1.8	1	7%	-12%
Cc1ccc(S(=O)(=O)NNC(=O)CC#N)cc1	-3	-24	-2.0	7	0%	u
CC(C)CC1Nc2ncnc(N3CCN(c4ccccc4)CC3)c2N(Cc2ccccc2)C1=O (stereo not drawn)	-13&-11	u	-3.3&-8.3	-11&-14	6%	u
C[C@@H]1CN([C@@H](C)CO)C(=O)c2cc(N(C)C)ccc2O[C@@H](C)CCCCO[C@@H]1CN(C)Cc1ccc2c(c1)OCO2	-13	-4	-9.1	-27	x	-27%

Compound profiles (already shown):
Results for `O=C(CCC(NC(=O)OCc1ccccc1)C(=O)OCC(=O)N1CCCCC1)OCC(=O)N1CCCCC1` (stereo not drawn) : D2 PAM = -6; CtBP-E1A blk = 0; D2 ag = -4.2; Six1-Eya2 inh = 21; gsp antagonist = 1%; gsp agonist = 2%
Results for `C=CCOc1ccccc1/C=N/O` : D2 PAM = 1; CtBP-E1A blk = 3; D2 ag = 1.1; Six1-Eya2 inh = 5; gsp antagonist = 5%; gsp agonist = 15%
Results for `CC(C)OCCCN(C)C1CCN(S(=O)(=O)c2ccc(-c3ccc(=O)[nH]n3)s2)CC1` : D2 PAM = -11; CtBP-E1A blk = 2; D2 ag = -5.7; Six1-Eya2 inh = 0; gsp antagonist = 2%; gsp agonist = u

(cont.)
SMILES	D2 PAM	CtBP-E1A blk	D2 ag	Six1-Eya2 inh	gsp antagonist	gsp agonist
Nc1nc2c(nc(N3CCCCC3)n2[C@@H]2O[C@H](CO)[C@@H](O)[C@H]2O)c(=O)[nH]1	-2	4	-0.4	0	4%	-5%
CCOc1ccc(OCCOCCNCCOC)cc1	-20	1	1.2	4	14%	u
CC(C)NC(=S)Nc1ccc(S(=O)(=O)Nc2ncccn2)cc1	-14	-3	-2.7	18	17%	16%[15.4 µM]
CCN1C=C(C(C)=O)C(=O)CC1	1	1	-4.8	-2	-1%	x
C[C@H](CO)N1C[C@H](C)[C@@H](CN(C)C(=O)Nc2ccc(C(F)(F)F)cc2)Oc2c(NC(=O)C3CCCCC3)cccc2C1=O	x	1	0.4	0	u	x
Cc1ccc(C(=O)N=c2sccn2C)cc1C	-8	5	-0.9	3	-2%	-7%
CC(=O)Nc1ccc(NC(=O)C2CCN(S(=O)(=O)c3cccc4nonc34)CC2)cc1	-1	0	1.8	3	1%	10%
NNC(=O)c1nc(-c2ccccc2)n2c1CCCCC2	-3	0	-1.7	-6	-4%	-3%
Cc1cccn2c(=O)nc(SCC(=O)NC3CCCC3)nc12	-3	23	-2.7	9	-2%	43%[15.4 µM]
O=C(COC(=O)c1ccc(O)cc1)Nc1ccc(Cl)cc1	-3	-5	-0.4	5	-8%	-20%
N[C@@H](Cc1cc(I)c(O)c(I)c1)C(=O)O	8	-26	-2.7	-24	-14%	x
Cc1noc(C)c1NC(=O)N(C)C[C@@H]1OCc2ccccc2-c2c(n(C)c3ccccc23)C(=O)N([C@H](C)CO)C[C@H]1C	-6	3	-2.4	2	x	-82%[inhibitor]
CCc1cc2c(NCC3CCCO3)nc(C)nc2s1 (stereo not drawn)	18	-1	1.2	1	-5%	26%
CCN(C(=O)CCS(=O)(=O)c1cccc2nonc12)c1ccc(C)c(C)c1	-5	-3	-2.1	6	-9%	-12%[15.4 µM]
O=C(CCS(=O)(=O)c1ccccc1)Nc1ccc(-c2nc3ccccc3s2)c(O)c1	7	1	-0.2	1	-5%	26%
OC[C@@H]1CN(Cc2ccncc2)C[C@H](n2cnc3c(N4CCOCC4)ncnc32)O1	-5	4	-6.4	1	x	x
COc1ccc2nc(N=Nc3ccc(N(C)C)cc3)sc2c1	-22	-25	-3.6	u	14%	10%
CCS(=O)(=O)N1CCN(c2ccc([N+](=O)[O-])c(NC(C)c3ccccc3)c2)CC1 (stereo not drawn)	-18	21	-6.3	13	-20%	-46%[inhibitor]
C=CC[N+]1(CC#CCOC(c2ccccc2)c2ccccc2)CCOCC1	-7	10	1.2	6	3%	-1%
NC(=O)c1ccccc1NC(=O)CN1CCOCC1	-1	14	-1.1	2	3%	-15%

Six1-Eya2 inh: what is marked active above
SMILES	D2 PAM	CtBP-E1A blk	D2 ag	Six1-Eya2 inh	gsp antagonist	gsp agonist
COCCNC(=S)N/N=C(\C)c1ccccc1O	-21	u	-7.9	-69*	8%	-34%[inhibitor]
Cc1cccc(C)c1Nc1c(-c2ccccn2)nc2ccccn12	-31	x	-8.0	-84*	-12%	31%

Rewritten field by field: entries from further up.
C[C@H](CO)N1C[C@H](C)[C@@H](CN(C)C(=O)Nc2ccc(C(F)(F)F)cc2)Oc2c(NC(=O)C3CCCCC3)cccc2C1=O
  D2 PAM = x	CtBP-E1A blk = 1	D2 ag = 0.4	Six1-Eya2 inh = 0	gsp antagonist = u	gsp agonist = x
CCc1cc2c(NCC3CCCO3)nc(C)nc2s1 (stereo not drawn)
  D2 PAM = 18	CtBP-E1A blk = -1	D2 ag = 1.2	Six1-Eya2 inh = 1	gsp antagonist = -5%	gsp agonist = 26%

(continued)
SMILES	D2 PAM	CtBP-E1A blk	D2 ag	Six1-Eya2 inh	gsp antagonist	gsp agonist
CC1CCN(S(=O)(=O)c2ccc(NC(=O)c3cccs3)cc2)CC1	-28	4	0.7	-22	4%	-2%
CCOC(=O)NC1Cc2ccccc2C1Sc1ccccn1 (stereo not drawn)	7	7	-0.6	4	-5%	1%
CCCCc1nc(Cl)c(CO)n1Cc1ccc(-c2ccccc2-c2nnn[nH]2)cc1	-5	-4	3.2	-2	-6%	x
COc1ccc(NC(=O)C2(C)CCN2Cc2ccc3ccccc3c2)cc1OC (stereo not drawn)	-3	-12	-2.9	-12	x	x
Cc1c(Cl)cnc(NC(=O)COC(=O)/C=C/c2ccco2)c1Cl	20	-3	-1.8	u	8%	-33%[inhibitor]
CCOC(=O)c1c(C)c(C(=O)Nc2ccc3c(c2)OCCO3)c(C)n1CC	-12	-10	-0.2	-11	-7%	-41%[inhibitor]
CC(C)CCNC(=O)C(Cc1ccccc1)NS(=O)(=O)c1ccc2c(c1)c(=O)n(C)c(=O)n2C (stereo not drawn)	-5	-2	-7.1	-15	2%	25%
COC(=O)COc1cccc2c(=O)n(CC(=O)N3CCCCC3)ccc12	-14	x	-4.2	1	1%	-11%
O=[N+]([O-])c1ccc2[nH]c(=S)sc2c1	-33	3	-8.1	-6	-33%	-25%
Cc1onc(-c2c(F)cccc2Cl)c1C(=O)OCC(=O)Nc1cccc(S(=O)(=O)N(C)C)c1	-27	13	4.2	-4	-30%	2%
Cc1ccc(OC(=O)CCC(=O)NC(C)c2ccccc2)cc1 (stereo not drawn)	-9	3	-2.3	0	9%	u
CCOc1ccc(C(=O)NC(=S)Nc2ccc(N3CCOCC3)c(Cl)c2)cc1[N+](=O)[O-]	-45	-9	-5.1	-18	-9%	-9%
Cc1nc2ccc(NC(=O)c3cncc(Br)c3)cc2s1	-7	-2	-2.4	1	12%	16%
Cc1ccc(-c2nnn(CC(=O)N(CC(=O)NC3CCCC3)c3cccc(F)c3)n2)o1	-1	4	0.7	7	-6%	u
COc1ccccc1CNC(=O)CN1C(=O)c2ccccc2S1(=O)=O	0	6	-4.6	9	-1%	25%
COc1ccc(S(=O)(=O)Nc2cccc(-c3ccc4nncn4n3)c2)c(OC)c1	4	-18	1.8	u	-18%	23%[15.4 µM]

Reformatted: entries from further up.
Values run as follows: D2 PAM	CtBP-E1A blk	D2 ag	Six1-Eya2 inh	gsp antagonist	gsp agonist
> Cc1ccc(OC(=O)CCC(=O)NC(C)c2ccccc2)cc1 (stereo not drawn)
  -9	3	-2.3	0	9%	u
> CCOc1ccc(C(=O)NC(=S)Nc2ccc(N3CCOCC3)c(Cl)c2)cc1[N+](=O)[O-]
  -45	-9	-5.1	-18	-9%	-9%
> Cc1nc2ccc(NC(=O)c3cncc(Br)c3)cc2s1
  -7	-2	-2.4	1	12%	16%
> Cc1ccc(-c2nnn(CC(=O)N(CC(=O)NC3CCCC3)c3cccc(F)c3)n2)o1
  -1	4	0.7	7	-6%	u

From PubChem BioAssay
